Screens as filed in PubChem.
TsaE inh – inhibitors of E. coli YjeE (TsaE). purified YjeE, fluorescence polarisation of a bound ADP probe. P0AF67. actives 0.05% (n = 71,000). Potency, µM; active = well fitted falling curve; inconclusive = weaker or top-dose-only fall, or a rising curve; inactive = flat or poorly fitted curve;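 note: top concentration of the series not given in the record; excess ADP was the control for the full effect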
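Purified YjeE (10 uM) with BODIPY Texas Red-labeled ADP probe (2 uM); compounds pin-transferred, 15 min at room temperature. Binding inhibition read as decreased fluorescence polarization; ADP titration as control.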
PK Bst – pyruvate kinase (B. stearothermophilus) modulation; partly purified Bacillus stearothermophilus pyruvate kinase, luminescence ATP production; ribose 5-phosphate activator present at AC10; Potency, µM; actives 1.2% (n = 51,000); in the data active means potency below about 11 µM; inconclusive means mostly about 12 µM to 25 µM; inactive means weaker than that;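 the screen sought inhibitors and activators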;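 note: potency is the fitted concentration of half-maximal effect; scaled between full activation by ribose 5 phosphate and full inhibition by luteolin; about four in five hits inhibit and the cells do not say which; series up to 57 µM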
Active calls of the source: *; i = inactive; ? = inconclusive; . = no result given. Only part of the results is shown; rates above refer to the full screens.

SMILES | TsaE inh | PK Bst
CCOc1ccc2[nH]c(=O)c(CN(Cc3ccco3)C(=O)c3ccc(Br)cc3)cc2c1 | i | >57
Cc1ccc2nc(-c3ccc(SCC(=O)Nc4cc(C)on4)nc3)[nH]c2c1 | i | 2.74*
CC(C)C[C@H](N)c1nnc(S(=O)(=O)Cc2cccc(F)c2)o1 | i | >57
c1cncc(CNc2ncncc2-c2cccnc2)c1 | i | .
COc1cc(-c2cc(C(F)(F)F)n3ncc(C(=O)O)c3n2)cc(OC)c1OC | . | >25.6
O=C(O)c1ccccc1C(=O)c1cccs1 | i | >57
Cc1c(NS(=O)(=O)CC23CCC(CC2=O)C3(C)C)c(=O)n(-c2ccccc2)n1C (centres undefined) | i | .
Nc1nonc1-c1noc(COc2ccccc2Cl)n1 | i | .
CCC(C)NC(=O)C1CCN(C(=O)N(C)C)CC1 (centres undefined) | i | >57
COc1ccc(C(=O)CSc2nnc(Cc3ccccc3)o2)cc1 | i | >57
Cc1nccn1CC(=O)O | i | >57
c1ccc(-c2nn3c(C4COc5ccccc5O4)nnc3s2)cc1 (centres undefined) | i | >57
CCOc1ccc(-c2nc(N)nc(C)c2-c2ccc(OC)c(OC)c2)c(O)c1 | i | >57
CCC(=O)Nc1ccc(Cl)c(NC(=O)C(C)C)c1 | i | >57
CCOc1ccc(OCC)c(NC(=O)C2CCCN(S(=O)(=O)c3c(C)n[nH]c3C)C2)c1 (centres undefined) | i | .
CCSCCOC(=O)C1=C(C)NC(=O)NC1c1cccc(OC)c1OC (centres undefined) | i | .
COc1ccc(-n2c(=O)c(-c3ccc(F)cc3)nc3cnc(N4CCNCC4)nc32)cc1 | i | .
Cc1cc(C)nc(N2CCC(C(=O)NCc3cccc(C(F)(F)F)c3)CC2)n1 | i | >57
COC(=O)C1=C(NC(=O)c2cccs2)CCS1 | i | >57
Cn1c(=O)c(-c2ccccc2)nc2cnc(OCc3ccccc3)nc21 | i | .
COc1ccc(C2CC(=O)c3cnc(NC(=O)c4ccccc4)nc3C2)cc1OC (centres undefined) | i | .
OC1CC2CC[C@H](C1)N2CCCN1c2ccccc2Sc2ccc(Cl)cc21 (some centres undefined) | i | .
Cc1ccc(-c2csc(N(CC3CCCO3)C(=O)c3ccco3)n2)cc1 (centres undefined) | i | >57
O=C(NC1CCCC1)C(c1cccs1)N(C(=O)c1ccco1)c1ccc2c(c1)OCCO2 (centres undefined) | i | >57
Cc1cc(-c2cc(C)c(O)c(C(C)(C)C)c2)cc(C(C)(C)C)c1O | i | .
CC1CN(Cc2nc3c(c(=O)[nH]c(=O)n3C)n2CCN2CCOCC2)CC(C)O1 (centres undefined) | i | >57
Cc1c(NC(=O)C2CCN(S(=O)(=O)c3ccccc3)CC2)c(=O)n(-c2ccccc2)n1C | i | .
CN(C)c1ccc(CNC(=O)CN(C)S(=O)(=O)c2cccc3cccnc23)cc1 | i | .
O=C(NCC(c1cccnc1)N1CCOCC1)Nc1ccccc1 (centres undefined) | i | >57
Cc1nnc(SCc2ccc(C(=O)c3ccc(Cl)cc3)o2)n1-c1ccccc1 | i | .
Cc1ccc(-n2ncc(C#N)c2/N=C/N(C)C)cc1 | i | >57
CCOC(=O)C1C(C)N=C2SCC(=O)N2C1c1cccc(Br)c1 (centres undefined) | ? | .
CCOC(=O)Nc1c(C)n(C)n(-c2ccccc2)c1=O | i | >57
COc1ccc(C(CNC(=O)Cc2cc(OC)c(OC)c(OC)c2)N2CCCC2)cc1 (centres undefined) | i | >57
COc1ccccc1C(=O)NCc1ccncc1 | i | >57
O=C1C(Cl)=C(Nc2ccc(S(=O)(=O)Nc3ccccn3)cc2)C(=O)c2ccccc21 | i | .
O=C(Cn1cc2c(n1)CCCC2)NCc1cccc(Cl)c1 | i | .
COc1cccc(NC(=O)CNC(=O)c2ccc(F)cc2)c1 | i | >57
COCCCn1c(SCC(=O)NC(C)C)nnc1-c1ccccc1 | i | >57
CC(=O)N=C1SC2CS(=O)(=O)CC2N1c1cccc(Cl)c1Cl (centres undefined) | i | .

Gathered by group, those above with a Cl atom (7)
SMILES | TsaE inh | PK Bst
Nc1nonc1-c1noc(COc2ccccc2Cl)n1 | i | .
CCC(=O)Nc1ccc(Cl)c(NC(=O)C(C)C)c1 | i | >57
OC1CC2CC[C@H](C1)N2CCCN1c2ccccc2Sc2ccc(Cl)cc21 (some centres undefined) | i | .
Cc1nnc(SCc2ccc(C(=O)c3ccc(Cl)cc3)o2)n1-c1ccccc1 | i | .
O=C1C(Cl)=C(Nc2ccc(S(=O)(=O)Nc3ccccn3)cc2)C(=O)c2ccccc21 | i | .
O=C(Cn1cc2c(n1)CCCC2)NCc1cccc(Cl)c1 | i | .
CC(=O)N=C1SC2CS(=O)(=O)CC2N1c1cccc(Cl)c1Cl (centres undefined) | i | .

Next section:
SMILES | TsaE inh | PK Bst
Cc1ccc(-n2cnnn2)c2cccnc12 | i | >57
Cc1cccc(-n2c(=O)cc(N3CCN(c4ccc(F)cc4)CC3)[nH]c2=O)c1 | i | .
COc1ccc2c(c1)CCc1c(C(=O)NCc3ccc(F)cc3)noc1-2 | i | .
CCCOc1ccc(C(=O)NCc2ccco2)cc1 | i | .
CCN1CCN(c2ccc(NC(=O)c3ccc4c(c3)OCO4)cc2)CC1 | i | >57
CCCC(=O)Nc1ccc(C(=O)O)cc1NC(=O)CCC | i | >57
O=C(CSc1nc2ccccc2c(=O)n1CC1CCCCC1)N1CCOCC1 | . | >25.6
COCCOC(=O)C1=C(C)NC(=O)N(C(C)=O)C1c1ccc(Cl)cc1 (centres undefined) | i | >57
CN(c1ccccc1C(=O)N1CCN(c2cccc(Cl)c2)CC1)S(C)(=O)=O | i | >57
COC(=O)[C@@]1(Cc2ccccc2)[C@H]2c3cc(C(=O)N(C)C)n(CCN4CNCC4=O)c3C[C@H]2CN1C(=O)c1ccccc1 | i | .
CCOC(=O)CSc1nnc(-c2cccs2)n1-c1ccccc1 | i | >57
CN(C(=O)c1ccccc1)C1(C)CCS(=O)(=O)C1 (centres undefined) | i | >57
C=CCn1c(SCC(=O)C(C)(C)C)nnc1-c1ccccn1 | i | >57
COCCNC(=O)c1noc2c1CCc1cc(OC)ccc1-2 | i | .
Cc1cccc(CSC2=NCCN2C(=O)c2ccc(Br)o2)c1 | i | .
Cc1nn(-c2ccccc2)c(-c2ccccc2)c1C(=O)O | i | .
CCCCN(C)C(=O)CS(=O)(=O)Cc1nc(-c2cccc(OC)c2)oc1C | i | .
CSc1ccccc1NC(=O)c1c(Br)cnn1C | . | >25.6
Cn1cc(CC(=O)Nc2cccc(C#N)c2)c2ccccc21 | i | >57
Cc1ccccc1C1CC(c2ccc(Br)cc2)Nc2nc(N)nn21 (centres undefined) | i | .
CC1CCCN(Cc2nc3c(c(=O)n(C)c(=O)n3C)n2Cc2c(F)cccc2Cl)C1 (centres undefined) | i | .
CC1CCCCN1C(=O)CSCC(=O)Nc1nc(-c2cccs2)cs1 (centres undefined) | i | .
N#CCCn1c(=O)c(-c2cc(F)cc(F)c2)nc2cnc(Oc3cccc(Cl)c3)nc21 | i | .
Cc1cc(C)cc(OCC(=O)Nc2nonc2NC(=O)COc2cc(C)cc(C)c2)c1 | i | >57
COCCn1c(=O)c(-c2ccccc2)nc2cnc(N(C)C)nc21 | i | .
Cc1ccc(C(=O)NC2CC3CCCC(C2)N3C(=O)NC2CCCCC2)cc1 (centres undefined) | i | >57
O=C1CC(N2CCCCCC2)C(=O)N1c1ccc2c(c1)OCO2 (centres undefined) | i | >57
O=c1cnc2cnc(Nc3ccccc3)nc2n1C1CC1 | i | .
CCOc1cc(C(=O)N2CCCC2)cc(OCC)c1OCC | i | >57
CCc1nc2oc3ccccc3c(=O)c2c(=O)n1Cc1ccccc1 | i | >57
CC(C)(C)NC(=O)CN(C(=O)CCN1CCCc2ccccc21)C(C)(C)C | i | >57
CCc1ccc2oc(-c3cc(N)ccc3Cl)nc2c1 | i | 2.87*
CCOCC(=O)Nc1nnc(SCCOC)s1 | i | >57
CC1CCCCC1NC(=O)CC1Oc2ccccc2NC1=O (centres undefined) | i | .
CC(C)n1c(C(O)c2ccc3c(c2)OCO3)nc2ccccc21 (centres undefined) | i | .
COC(=O)C(C)Sc1nc2c(c(=O)[nH]c(=O)n2C)n1CCC(C)C (centres undefined) | i | >57
Cc1noc(C)c1CSCC(=O)OCc1nc2ccccc2c(=O)n1CC#N | i | >57
CC(c1ccccc1)C1NC(C(=O)O)CS1 (centres undefined) | i | >57
COC(=O)N1CCC[C@@]2(CCN(Cc3cc(C(F)(F)F)cc(C(F)(F)F)c3)C2)C1 | i | .
CCCCCC(=O)O[C@H](CC(=O)O)C[N+](C)(C)C | i | .

4 compounds picked at random from the list so far:
SMILES | TsaE inh | PK Bst
CCc1ccc2oc(-c3cc(N)ccc3Cl)nc2c1 | i | 2.87*
CCOCC(=O)Nc1nnc(SCCOC)s1 | i | >57
COC(=O)C(C)Sc1nc2c(c(=O)[nH]c(=O)n2C)n1CCC(C)C (centres undefined) | i | >57
O=C1CC(N2CCCCCC2)C(=O)N1c1ccc2c(c1)OCO2 (centres undefined) | i | >57

(continued)
SMILES | TsaE inh | PK Bst
CC1CCN(CCn2c(=S)[nH]c3ncccc3c2=O)CC1 | i | >57
O=C(Nc1ccccn1)c1ccc(NC(=O)c2ccco2)cc1 | i | i
O=C(Nc1ccc(-c2nc3cccnc3s2)cc1)c1ccco1 | i | .
Cc1ccn2cc(CNC(=O)c3ccc(Br)o3)nc2c1 | i | .
CCSc1nnc(NC(=O)C2Cc3ccccc3CN2C(=O)c2ccco2)s1 (centres undefined) | i | >57
CC(SC1CCCC1)C(=O)Nc1ccnn1C(C)C (centres undefined) | i | >57
CC(=O)SC[C@@H](Cc1ccccc1)C(=O)NCC(=O)OCc1ccccc1 | i | .
Cc1ccc(C)c(-n2nnnc2SCC(=O)c2ccc3c(c2)NC(=O)CO3)c1 | i | >57
CC1(C)Cc2c(C#N)c(N)sc(=S)c2CO1 | i | .
Cc1ccc(/C(COc2ccccc2O)=N\O)cc1 | i | >57
CCOc1ccc(Cl)cc1S(=O)(=O)N1CCCC1 | i | >57
Cc1ccc(Cl)cc1-n1c(=O)cc(N2CC(C)OC(C)C2)[nH]c1=O (centres undefined) | i | >57
Cc1cc(C)cc(N(CC(=O)NC2CC3CCC2C3)S(C)(=O)=O)c1 (centres undefined) | i | .
CC(C)N(C(=O)COC(=O)c1ccc(O)cc1)C(C)C | i | >57
COc1ccc(OC)c(S(=O)(=O)Nc2cc(Cl)cc(Cl)c2)c1 | i | >57
COCc1nnc(NC(=O)c2cc(Cl)ccc2OC)s1 | i | >57
C=C(C)CN(CC)c1nc(N)c(C#N)c(CC#N)c1C#N | i | >57
COc1ccc(CN(C(=O)c2ccco2)C2CC(C)N(C)CC2C)cc1 (centres undefined) | i | >57
O=C(CCSc1nnc(-c2ccco2)o1)Nc1ccccc1 | i | >57
CCC(Sc1nc(N)cc(=O)[nH]1)C(=O)NC(C(=O)OC)c1ccccc1 (centres undefined) | i | >57
Cc1ccc(OCc2nc(C#N)c(N3CCN(Cc4ccccc4)CC3)o2)cc1 | i | >57
COC(=O)c1cc(NCc2ccc3c(c2)OCO3)ccc1N1CCOCC1 | i | >57
CCC(Oc1ccccc1)C(=O)N1CCN(c2ccccn2)CC1 (centres undefined) | i | >57
NC(=O)c1c(NC(=O)c2cc3ccccc3o2)sc2c1CCC2 | i | .
CCOC(=O)CCc1c(C)c2ccc(OCc3nn[nH]n3)c(C)c2oc1=O | i | >57
COc1ccc(C2C(C#N)=C(C)NC3=C2C(=O)CC(C)(C)C3)c(OC)c1 (centres undefined) | i | .
COc1cccc(C(=O)NCc2nnc(SCC(=O)Nc3nccs3)n2-c2ccccc2)c1 | i | .
C#CCN1CC(C)/C(=N/O)CC1C (centres undefined) | i | >57
COCC(=O)N1CCC2(CC1)CCN(c1ncccn1)CC2 | i | .
COc1cc(OC)cc(C(=O)N(Cc2nc(-c3cccc(C)c3)no2)C(C)C)c1 | i | >57
COc1ccccc1C(=O)N1CCCC(c2nc(-c3cc(OC)c(OC)c(OC)c3)no2)C1 (centres undefined) | i | >57
O=C1c2ccccc2C(=O)N1CC#CCN1CCN(C2CCCCC2)CC1 | i | >57
CCCCn1nnnc1NCc1cccnc1 | i | >57
Cc1nc(C)c(C(=O)C2=C(O)C(=O)N(CCN3CCOCC3)C2c2cccnc2)s1 (centres undefined) | i | >57
Cc1cc(C)n(-c2cc(=O)n(C)c(=O)n2C)n1 | i | >57
COc1cc(CN(C)CCc2ccccn2)cc(OC)c1OC | i | >57
CNc1nc(-c2cccc(NS(C)(=O)=O)c2)nc2ccccc12 | i | .
O=C(N1CCCCC1)N1CCN(c2ccc(Cl)cc2)CC1 | i | >57
COc1ccc2c(c1)Cc1sc(NC(C)=O)nc1-2 | i | ?
CC(=O)O[C@H](CC(=O)O)C[N+](C)(C)C | i | .
CCC(C)(C)n1nnnc1C(c1ccc2ncccc2c1)N1CCN2CCCC2C1 (centres undefined) | i | >57
CCOc1cccc(CN2CCN(c3cccc(C(F)(F)F)c3)CC2)c1O | i | >57
COc1ccc(CNc2oc(Cc3cccc4ccccc34)nc2C#N)cc1 | i | >57
COC(=O)[C@H]1[C@@H]2C[C@H]3c4[nH]c5ccccc5c4CCN3C[C@@H]2CC[C@@H]1O | i | .
CCOC(=O)C1=C(C)NC(=O)NC1c1cc(Br)c(O)c(OC)c1 (centres undefined) | i | >57
Cc1ccc(S(=O)(=O)c2nc(-c3ccccc3)oc2NCc2cccnc2)cc1 | i | ?
